# Bioassay records: PubChem BioAssay, several laboratories
# LANA-H2A inh: blocks KSHV LANA binding to histone H2A/H2B; Q9QR71; cell-free LANA-H2A/H2B peptide, fluorescence polarization; inhibition, % (concentration not given with the values); 320,000 compounds, 0.6% hits; AID 2629; in the data active = inhibition mostly above about 10%, no sharp cut-off; inactive = mostly below about 6.7%;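 also: stock transfer was 7.5 nL into about 10 µL; 0% = median of vehicle wells and 100% = median of positive control wells; one replicate is shown; the record names a cut of 25% in any replicate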
# Bfl-1 A1 inh: inhibitors of the anti-apoptotic protein A1, read as caspase activation; caspase activation, % (no concentration beside the values); 330,000 compounds, 0.066% hits; MEF A1-2A-BIM cells, Caspase-Glo 3/7 luminescence, 3 h; percent of clofoctol response, vehicle zero;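 active = over half of replicate activation scores above 10%, or exactly half above 10 with the replicate mean above 10; inconclusive = replicate mean below 10 yet half the replicates above 10; inactive = over half of replicates below 10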;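 also: wells of about 30 µL received 50 nL stock; many hits fall short of the cut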
# Beta2AR agonist: activates human beta-2 adrenergic receptor causing internalization. P07550. 340,000 compounds, 0.43% hits. Am2.2-beta2AR cells, FAP receptor internalization, flow cytometry; reference of the scale not given here. response, % (concentration not given with the values);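 active = response above a set limit, near 3 SD of response in nonfluorescent compounds, cut at about 42% in these data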;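 also: stock transfer was 100 nL into about 11 µL; a reference agonist was the positive control; negative values mostly stem from fluorescent compounds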
# Target sequence (P07550 whole entry, looked up): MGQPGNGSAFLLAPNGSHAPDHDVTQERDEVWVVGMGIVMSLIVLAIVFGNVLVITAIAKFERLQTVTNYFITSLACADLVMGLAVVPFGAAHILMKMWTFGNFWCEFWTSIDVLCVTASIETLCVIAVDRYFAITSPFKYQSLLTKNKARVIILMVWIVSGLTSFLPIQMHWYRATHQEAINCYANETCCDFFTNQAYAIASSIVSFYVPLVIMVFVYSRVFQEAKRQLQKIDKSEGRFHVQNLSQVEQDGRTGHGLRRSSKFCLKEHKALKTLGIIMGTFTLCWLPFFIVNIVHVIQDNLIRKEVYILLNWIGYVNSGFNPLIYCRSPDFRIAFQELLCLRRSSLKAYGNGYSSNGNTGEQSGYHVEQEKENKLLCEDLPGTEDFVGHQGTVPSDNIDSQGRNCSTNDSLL
# Calb FLC: C. albicans growth modulation with fluconazole. C. albicans CaCi-2 (fluconazole-resistant clinical isolate) + fluconazole, Alamar Blue growth, 48 h. AID 1979. 300,000 compounds, 0.57% hits. growth inhibition, % (test concentration not listed);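 active = most replicates above 75%; inconclusive = exactly half above 75%; inactive = most below 75%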;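 also: all wells also contain fluconazole at 8 µg/ml as a sub-toxic cotreatment; 0% = median of DMSO wells and 100% = median of geldanamycin control wells; wells of about 8 µL received 7.5 nL stock; the first replicate is given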
# rRNA inh HTS: inhibitors of bacterial rRNA selective over humanized ribosomes | 350,000 compounds, 1.6% hits | E. coli WT GFP vs humanized-ribosome RFP mutants, fluorescence, 24 h; hits give low values; DMSO median 0, no signal -100 | GFP signal change (wild-type ribosome), % (test concentration not listed) | AID 720706;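 active = significant combined selectivity score with lowered wild-type GFP, culture density cut under 30%, mutant RFP and density less affected; inactive = any of these conditions unmet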; also: one replicate is shown; some compounds called inactive have numbers as strong as hits
# ALR inh: blocks human ALR sulfhydryl oxidase activity; P55789; purified ALR, DTT oxidation, H2O2 HRP-luminol luminescence; inhibition, % (concentration not given with the values); 290,000 compounds, 3.8% hits; AID 485317;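 active = mean and each replicate at 75% or more; inconclusive = only one of the two met; inactive = neither met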;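 also: stock transfer was 7.5 nL into about 7.5 µL; 0% = neutral wells and 100% = wells with inactivated enzyme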
# Target sequence (P55789 whole entry, looked up): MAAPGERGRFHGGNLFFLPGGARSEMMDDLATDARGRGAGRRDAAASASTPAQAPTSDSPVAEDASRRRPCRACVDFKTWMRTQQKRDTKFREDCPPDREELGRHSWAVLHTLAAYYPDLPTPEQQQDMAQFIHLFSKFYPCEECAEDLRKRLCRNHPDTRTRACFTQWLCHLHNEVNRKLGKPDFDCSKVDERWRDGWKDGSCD
# Beta cell apopt: beta cell apoptosis inhibition. AID 435005. 300,000 compounds, 0.8% hits. INS-1E cytokine-induced death, ATP luminescence, 48 h; percent of positive-control rescue, neutral wells zero. protection from apoptosis, % (test concentration not listed);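 active = all replicates at 75% or more, or half of them and the mean; inconclusive = half reach 75% but not the mean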;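 also: 0% = cytokine-treated negative control wells and 100% = positive control rescue; higher means more ATP so stronger rescue from cytokine killing; wells of about 40 µL received 100 nL stock; the first replicate is given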
# T cruzi inh: blocks replication of Trypanosoma cruzi | T. cruzi beta-gal in NIH3T3, luminescence, 90 h | inhibition, % (concentration not given with the values) | 300,000 compounds, 1.4% hits | AID 1885;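 active = mean inhibition across valid replicates above about 55%, limit read from the data; inconclusive = mean below that limit but half or more replicates reach it; inactive = mean below it, under half of replicates reach it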;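 also: signal also drops with host cell toxicity which is not excluded here; 0% = plate median of DMSO wells and 100% = zero luminescence signal; higher percent means less beta-gal luminescence so fewer parasites; stock transfer was 50 nL into about 50 µL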
# rRNA inh HTS OD600: recorded beside rRNA inh HTS, whose call it bears; OD600 change, %; measured here: OD600 growth;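 optical density of the mix in the first replicate; 0 = DMSO median and -100 = no signal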
# rRNA inh HTS RFP: second read-out of rRNA inh HTS, no call of its own (marks repeat the call); RFP signal change, %; measured here: RFP humanized mutant strains;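 first replicate; 0 = DMSO median and -100 = no signal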
# The depositor's hits bear a star; i = inactive; ? = inconclusive; nt = no result given. This is a subset, so the mix of outcomes need not match the whole.
# Each structure is followed by: LANA-H2A inh, Bfl-1 A1 inh, Beta2AR agonist, Calb FLC, rRNA inh HTS, rRNA inh HTS OD600, rRNA inh HTS RFP, ALR inh, Beta cell apopt, T cruzi inh
- CCc1ccccc1S(=O)(=O)Cc1ccc(C(=O)NCCc2ccccc2)o1
 : -4.0, -0.8, -5, -4, -7, -25, 2.1, -5, 2, 11
- O=C(NC1CCCC1)C1C2C=CC(C2)C1C(=O)N1CCOCC1 (stereo unspecified)
 : -3.4, 0.6, 3, -6, nt, nt, nt, 0, 2, -8
- CN1CCc2c(sc(/N=C/c3cc(Cl)ccc3O)c2C#N)C1
 : -5.8, -0.4, 22, -8, 10, -2, 2.1, 3, -1, -2
- COCCNC(=O)CCCn1c(=O)c2cc(OC)c(OC)cc2n(CC(=O)c2ccc(Cl)cc2)c1=O
 : 2.3, 0.7, nt, 2, 16, 4, -3.5, 1, -20, 14
- COc1ccc(C(=S)N2CCOCC2)cc1OC(=O)c1ccc(C)cc1
 : 1.3, 0.1, -2, -4, 3, -13, -1.8, -15, -5, -30
- CC1CCN(C(=O)COC(=O)c2ccc(=O)n(Cc3ccccc3)n2)CC1
 : 0.8, -0.7, -6, 1, 5, 3, 2.7, nt, 0, -11
- O=C(CCn1c(=O)oc2cc(Cl)ccc21)Nc1ccc(O)cc1
 : 1.7, 0.4, -19, -3, 2, -3, -2.4, 98*, 1, -2
- CCc1cc(=O)oc2c3c(cc(OCC(=O)NCCCCCC(=O)O)c12)OC(C)(C)CC3
 : 1.0, -0.6, -5, 0, 1, 7, 0.1, -20, -3, -5
- Nc1ccc(Sc2nnnn2-c2ccccc2)c(Cl)c1
 : 4.3, 0.9, -11, -14, nt, nt, nt, -2, -7, 16
- O=C(CNC(=O)c1ccccc1F)NCc1ccncc1
 : 1.7, -1.6, -1, nt, 6, 11, -3.8, -9, 1, nt
- CC(C)C(=O)Nc1nnc(Cc2c[nH]c3ccccc23)s1
 : 3.4, 0.5, -7, 9, nt, nt, nt, 0, nt, -5
- COCc1nnc(NC(=O)CCCCCN2C(=O)c3ccccc3C2=O)s1
 : 3.9, -1.2, -4, 7, nt, nt, nt, -3, -7, -1
- COc1cc(Cl)cc(C#N)c1OCC(=O)O
 : -1.2, 1.7, -8, 8, nt, nt, nt, -2, nt, -12
- CCOC(=O)Cc1csc(NC(=O)c2ccc(Br)s2)n1
 : 2.5, 0.8, nt, 7, nt, nt, nt, 1, 1, -11
- Cc1cc(C(=O)NCC(=O)OC(C(=O)Nc2cc(C(F)(F)F)ccc2Cl)c2ccccc2)ccc1[N+](=O)[O-] (stereo unspecified)
 : -3.0, 1.2, 2, 9, nt, nt, nt, -2, -3, 5
- O=C(O)C1C2CCC(O2)C1C(=O)Nc1cccc(F)c1 (stereo unspecified)
 : 1.7, 0.1, nt, -6, nt, nt, nt, 0, -2, 0
- CCCC(=O)OCC(=O)Nc1ccc2c(c1)OCO2
 : 4.0, 1.5, 0, 2, 6, 1, -1.4, 24, -4, -14
- Cc1c(NC(=O)CSc2nnc(-c3ccncc3)o2)c(=O)n(-c2ccccc2)n1C
 : 0.1, 1.1, -4, -21, 15, 4, -1.3, -1, 0, -16
- O=C(N/N=C/c1ccc(O)cc1O)c1ccncc1
 : 0.1, -2.5, 0, -4, 8, 0, 3.4, 25, 64, -1
- CC(=O)N1CCN(CC(=O)Nc2ccc(C)c(F)c2)CC1
 : -1.9, -0.6, 0, 2, -8, -10, 0.0, 1, 2, 3
- CCOc1cc(C(=S)N2CCOCC2)cc(Br)c1OS(=O)(=O)c1ccccc1
 : -2.9, -1.1, 16, -8, -18, -15, -1.8, nt, 6, 12
- Nn1c(SCC(=O)NCc2ccccc2)nnc1C1CC1
 : -3.4, -0.5, -8, -8, nt, nt, nt, 16, -12, -9
- Cc1cc(C)n(-c2cc(N3CCN(S(=O)(=O)c4ccc5ccccc5c4)CC3)ccc2[N+](=O)[O-])n1
 : -0.1, 0.3, 0, 6, nt, nt, nt, nt, 2, 19
- CC(C)/C(=N\NC(=O)Nc1ccccc1)c1ccccc1
 : -7.9, -1.0, -11, -28, nt, nt, nt, -6, 8, -12
- OC(c1cc(C(F)(F)F)nc2c(Cl)cc(Cl)cc12)C1CCCCN1 (stereo unspecified)
 : 1.2, 1.8, 31, 1, -17, -55, 19, -6, 36, 38
- CS(=O)(=O)Nc1ccccc1C(=O)c1ccccc1
 : 1.4, 0.8, 2, -6, nt, nt, nt, 68, -5, 1
- CCCCNC(=O)CN(c1ccc(Cl)c(Cl)c1)S(C)(=O)=O
 : -1.5, 0.5, -2, 35, nt, nt, nt, 0, -2, -6
- Cc1nn2c(NCC(C)C)c3c(nc2c1-c1ccccc1)CCC3
 : 1.1, -0.2, -5, -4, nt, nt, nt, -5, 35, 10
- Cc1onc(-c2ccccc2Cl)c1C(=O)NC(=S)NCc1cccnc1
 : 3.1, 0.4, -9, 6, -2, -3, 0.2, 14, -1, 39
- CCOc1cc(C(=O)NC(CC(=O)O)c2ccc(OC3CCCC3)cc2)cc(OCC)c1OCC (stereo unspecified)
 : -0.3, -0.1, 3, 2, 1, 4, -1.3, -11, 1, -13
- COc1cc(NC(=S)NC2CC(C)(C)NC(C)(C)C2)cc(OC)c1
 : -5.3, -0.7, 4, -3, 6, 8, -0.4, nt, 5, -10
- CCC(=O)N1CCN(c2ccc(Cl)cc2NC(=O)c2ccc(Br)o2)CC1
 : -4.1, 1.8, -13, ?, nt, nt, nt, -1, 8, 36
- O=c1/c(=C/c2ccc(O)cc2)sc2n1CCCN=2
 : 3.9, -8.3, -19, nt, nt, nt, nt, 98*, 2, nt
- COc1ccccc1N1CCN(C(=O)c2ccc3nc(-c4ccco4)c(-c4ccco4)nc3c2)CC1
 : 0.7, -0.1, 18, -2, nt, nt, nt, -9, 7, 23
- COc1cc(S(=O)(=O)NC2CCCC2)c(OC)cc1Cl
 : -2.2, -0.2, -3, ?, nt, nt, nt, -9, -5, -2
- CCOC(=O)C(=O)Nc1nc(-c2ccc3c(c2)CCN3C(=O)C2CC2)c(C)s1
 : 1.5, 0.9, -8, -20, -1, -1, -4.6, 99*, 4, 6
- CCOC(=O)c1cccc(NC(=O)CCn2nnc3ccccc32)c1
 : 1.3, 0.3, 13, -6, nt, nt, nt, -5, 0, 3
- COc1cc(O)c2c(c1)OC(c1ccc(O)cc1)CC2=O (stereo unspecified)
 : -2.3, -0.5, -5, 8, nt, nt, nt, 69, -11, 8
- O=C(O)CS(=O)(=O)CC(=O)NCc1cccc(C(F)(F)F)c1
 : -2.0, -0.1, -6, -9, 5, 2, -0.5, -1, 0, -25
- C=CCN1C(C(=O)c2ccccc2)=C(OC(=O)COc2ccccc2)c2ccccc2S1(=O)=O
 : i, -0.3, 3, nt, -48, -74, -22, -5, 9, nt
- O=C(C1CC(=O)N(c2ccc(F)cc2)C1)N1CCN(c2ccc(F)cc2)CC1 (stereo unspecified)
 : 5.1, -1.7, 2, 17, 3, 6, 2.1, 29, 1, -12
- Cc1ccc(CN(Cc2ccc(C)o2)C(=S)NCC(=O)O)cc1
 : 0.5, 0.5, 1, 30, nt, nt, nt, nt, -8, -10
- COC(=O)c1c(N)sc(Cc2ccccc2)c1C
 : -0.8, 0.1, 4, 8, -5, 1, -1.2, nt, -27, -15
- N/C(=N\OC(=O)c1ccc(Cl)cc1Cl)c1ccc(Cl)cc1
 : 5.9, -5.9, 9, -8, nt, nt, nt, 1, -2, 8
- COc1ccc(CNC(=O)C(c2cccs2)N(C(=O)c2csnn2)C2CC2)cc1 (stereo unspecified)
 : -4.4, -0.6, -6, 3, nt, nt, nt, -19, -9, -4
- CC1CC(C)CN(S(=O)(=O)c2cc3c(cc2Cl)NC(=O)CO3)C1 (stereo unspecified)
 : 4.8, -0.3, 13, 3, 1, -5, 1.9, -16, 2, 7
- O=C(NC1CCCC1)C1CCN(C(=O)c2ccccc2Cl)CC1
 : 2.7, -0.2, -5, 10, 6, 9, -1.8, -4, 0, -9
- CC1CN(S(=O)(=O)c2ccc(C(=O)Nc3nnc(-c4ccccn4)o3)cc2)CC(C)O1 (stereo unspecified)
 : -2.8, -0.1, 6, 5, 5, 14, -0.9, 4, -6, -3
- CNc1snc(C)c1C(=O)OCC(=O)c1cc(F)ccc1OC
 : 1.0, -0.4, -10, nt, 5, 5, -1.8, -1, 9, nt
- CN(Cc1ccccc1F)C(=O)c1ccc(Oc2ccccc2)cc1
 : -4.6, -1.7, -4, 3, -35, -56, -1.1, -3, -3, 14

# New compounds follow:
# Each structure is followed by: LANA-H2A inh, Bfl-1 A1 inh, Beta2AR agonist, Calb FLC, rRNA inh HTS, rRNA inh HTS OD600, rRNA inh HTS RFP, ALR inh, Beta cell apopt, T cruzi inh
- O=C(CCCCCn1c(=S)[nH]c2cc3c(cc2c1=O)OCO3)N1CCN(C(=O)c2ccco2)CC1
 : -1.6, 0.3, -5, 42, nt, nt, nt, -8, 6, 6
- Fc1ccc(CN2CCC(Cc3ccccc3)CC2)cc1F
 : -5.1, -0.8, 10, -4, 6, 8, 0.1, 3, -1, -3
- CCn1c(Cc2c(C)[nH]c3ccccc23)nnc1SCC(=O)NCc1ccccc1
 : -1.5, -0.4, -7, -12, nt, nt, nt, 29, nt, -7
- COc1ccccc1C(=O)Nc1nnc(S(=O)(=O)N2CCN(c3ccc(F)cc3)CC2)s1
 : -3.0, 0.6, 34, 3, -6, 7, -0.9, 0, 5, 4
- CCN(CC)CCNC(=O)c1cc2c(-c3cccc(OC)c3)nn(C)c2s1
 : 0.9, 0.1, 2, 9, 0, 0, 4.1, -3, 11, 38
- C[C@H](C(=O)CC(=O)OC(C)(C)C)[C@H](O)c1ccc(C(F)(F)F)cc1
 : 0.3, 1.7, 1, -9, nt, nt, nt, 16, -10, -3
- CCOC(=O)C1=C(C)N(C)C(C)=C(C(=O)OCC)C1c1ccccn1
 : 0.4, -0.1, -8, -6, nt, nt, nt, -13, nt, -1

# 4 structures from above, ordered by length of the SMILES, lowest first:
# Each structure is followed by: LANA-H2A inh, Bfl-1 A1 inh, Beta2AR agonist, Calb FLC, rRNA inh HTS, rRNA inh HTS OD600, rRNA inh HTS RFP, ALR inh, Beta cell apopt, T cruzi inh
- O=C(CNC(=O)c1ccccc1F)NCc1ccncc1
 : 1.7, -1.6, -1, nt, 6, 11, -3.8, -9, 1, nt
- Nn1c(SCC(=O)NCc2ccccc2)nnc1C1CC1
 : -3.4, -0.5, -8, -8, nt, nt, nt, 16, -12, -9
- Cc1ccc(CN(Cc2ccc(C)o2)C(=S)NCC(=O)O)cc1
 : 0.5, 0.5, 1, 30, nt, nt, nt, nt, -8, -10
- O=C(NC1CCCC1)C1C2C=CC(C2)C1C(=O)N1CCOCC1 (stereo unspecified)
 : -3.4, 0.6, 3, -6, nt, nt, nt, 0, 2, -8
